Rango-impB inh: qHTS Assay for Inhibitors of Rango (Ran-regulated importin-beta cargo) - Importin beta complex formation; AID 540263, 2011; 0.031% of 340,000 active; Potency, µM (top dose mostly 92.2 µM), without a hit: at the top dose inhibition of complex formation; Rango CFP/YFP FRET sensor + importin beta, 45 min; active = rising FRET ratio curve, often small or poorly fitted; inconclusive = mostly compound fluorescence or quenching in the first reads; inactive = flat curves in all reads;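 also: potency is read from the fitted curve at half-maximal effect; 0% = DMSO wells and 100% = buffer wells lacking importin beta; nearly all actives have a fitted effect of over 15% in size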
Target sequence (Q14974 whole entry, looked up): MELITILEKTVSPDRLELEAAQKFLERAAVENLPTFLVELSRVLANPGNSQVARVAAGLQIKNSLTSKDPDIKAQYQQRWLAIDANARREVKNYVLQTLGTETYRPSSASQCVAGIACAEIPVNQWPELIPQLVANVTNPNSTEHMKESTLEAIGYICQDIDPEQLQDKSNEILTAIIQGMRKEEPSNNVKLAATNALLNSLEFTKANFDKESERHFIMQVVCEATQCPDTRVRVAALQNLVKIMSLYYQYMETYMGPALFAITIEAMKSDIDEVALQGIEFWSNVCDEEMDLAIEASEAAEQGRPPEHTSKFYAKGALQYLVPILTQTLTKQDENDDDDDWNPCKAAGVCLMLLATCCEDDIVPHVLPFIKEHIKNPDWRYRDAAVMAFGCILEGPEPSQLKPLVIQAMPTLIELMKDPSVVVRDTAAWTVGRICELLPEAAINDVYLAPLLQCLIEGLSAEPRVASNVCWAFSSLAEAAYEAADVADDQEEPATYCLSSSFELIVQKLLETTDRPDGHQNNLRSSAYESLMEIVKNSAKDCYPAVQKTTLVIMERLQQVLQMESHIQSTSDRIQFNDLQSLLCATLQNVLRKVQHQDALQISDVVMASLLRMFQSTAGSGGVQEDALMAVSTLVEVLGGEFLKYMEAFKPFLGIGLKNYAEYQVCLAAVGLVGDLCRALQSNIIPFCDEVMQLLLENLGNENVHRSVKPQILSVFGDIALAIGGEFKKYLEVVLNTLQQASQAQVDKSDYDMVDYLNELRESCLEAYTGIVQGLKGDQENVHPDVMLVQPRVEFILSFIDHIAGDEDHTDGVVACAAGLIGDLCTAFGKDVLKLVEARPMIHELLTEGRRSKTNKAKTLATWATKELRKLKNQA
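FRET biosensor (snurportin 1 IBB flanked by EYFP and cerulean), 50 nM, with compound 5 min, then 0.125 microM importin beta in PBS, 1 mM DTT, 0.02% Tween-20, 0.1% BSA. CFP/YFP ratio read after 45 min at room temperature; pre-read flags interference.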
Rango release inh: qHTS Assay for Inhibitors of RanGTP induced Rango (Ran-regulated importin-beta cargo) - Importin beta complex dissociation; Snurportin-1 (Homo sapiens) + GTP-binding nuclear protein Ran (Homo sapiens) + Importin …; Biochemical FRET Rango-importin beta, RanGTP-induced dissociation; Potency, µM (top dose mostly 46.1 µM), for inactives: at the highest dose activity change, negative = inhibition; 0.071% of 340,000 active; AID 540253, 2011; active means falling FRET ratio curve, often poorly fitted, with flat reads before Ran was added; inconclusive means other falling curves, or compound fluorescence or quenching; inactive means flat or rising ratio curve;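 also: potency is read from the fitted curve at half-maximal effect; % of control where 0% means no effect; nearly all actives have a fitted effect of over 45% in size; -100% = wells without RanGTP and RCC1; the record marks most hits as doubtful in a second field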
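Rango/importin beta premix (0.1/0.25 uM final), PBS + 1 mM DTT + 0.02% Tween-20 + 0.1% BSA; cpd 5 min RT; FRET pre-read; + RanGTP-RCC1 (0.6 uM Ran, 2 mM GTP, 0.2 uM RCC1); 45 min RT; FRET post-read, ex 430, em 486/530 nm.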
GLA inh pH 4.5: qHTS Assay for Inhibitors of Human alpha-Galactosidase at pH 4.5; AID 1467, 2008; activity change, negative = inhibition, % at 105 µM; 230,000 tested, under 10 active; purified enzyme, 4-MU-alpha-Gal fluorescence, pH 4.5; inconclusive = small, poorly fitted or top-dose-only inhibition, or a rising curve; inactive = flat fitted curve, though single readings scatter; no compound was filed as active;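 also: 0% = full activity with enzyme and -100% = basal without enzyme; dose as in the result columns while the protocol names 77 µM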
miR-21 reporter: qHTS Assay for Modulators of miRNAs and/orActivators of miR-21; HeLa miR-21 FLuc reporter, luciferase, 48 h; Potency, µM (highest dose often 38.3 µM), for inactives: at the top dose reporter change, positive = more light; 340,000 tested, under 10 active; active = well fitted rising curve with a large enough effect; inconclusive = small, poorly fitted or top-dose-only effect; inactive = no such curve, though single readings can be large or run the other way;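 also: % of control where 0% means no effect; miR-21 action dims this reporter so a rising signal means less miR-21 action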
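HeLa cells stably expressing CMV-driven firefly luciferase with a downstream miR-21 binding sequence, endogenously expressing miR-21, were treated with titrations (up to about 40uM final) for 48 hours at 37 degree Celsius. Luciferase luminescence was read after lysis.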
The depositor's hits bear a star. This is a subset; the hit share may differ from the screen's.

Preview (three entries):
Clc1ccc(SCc2cc(-c3ccc(Cl)cc3)on2)cc1 was read as Rango-impB inh -1.8%, Rango release inh -2%, GLA inh pH 4.5 1 and miR-21 reporter -18%.
`O=C(CCCCCN1C(=O)c2cccc3cccc(c23)C1=O)N1CCOCC1` gave Rango-impB inh -0.1%, Rango release inh -7%, GLA inh pH 4.5 -3 and miR-21 reporter -16%.
For O=C(NC12CC3CC(CC(C3)C1)C2)N1CCN(c2ncccn2)CC1 the results were Rango-impB inh 2.2%, Rango release inh 4%, GLA inh pH 4.5 1 and miR-21 reporter -32%.

Main list, from the first entry:
Clc1ccc(SCc2cc(-c3ccc(Cl)cc3)on2)cc1 was read as Rango-impB inh -1.8%, Rango release inh -2%, GLA inh pH 4.5 1 and miR-21 reporter -18%.
`O=C(CCCCCN1C(=O)c2cccc3cccc(c23)C1=O)N1CCOCC1` gave Rango-impB inh -0.1%, Rango release inh -7%, GLA inh pH 4.5 -3 and miR-21 reporter -16%.
For O=C(NC12CC3CC(CC(C3)C1)C2)N1CCN(c2ncccn2)CC1 the results were Rango-impB inh 2.2%, Rango release inh 4%, GLA inh pH 4.5 1 and miR-21 reporter -32%.
`CCCNC(=O)CCNC(=O)c1ccc(C(C)(C)C)cc1` gave Rango-impB inh -1.0%, Rango release inh 0%, GLA inh pH 4.5 -9 and miR-21 reporter -11%.
`CCc1ccc(OCC(=O)NC(=S)Nc2ccc(C(=O)O)cc2)cc1` gave Rango-impB inh 0.1%, Rango release inh 3%, GLA inh pH 4.5 -4 and miR-21 reporter -1%.
`CC1=Nc2cccc3cccc(c23)N1C` gave Rango-impB inh -1.0%, Rango release inh -3%, GLA inh pH 4.5 5 and miR-21 reporter -12%.
`CCCOc1ccc(C2C(=O)N(C3CCCCC3)CC(=O)N2CCC)cc1OC` (stereo not given) gave Rango-impB inh -3.2%, Rango release inh 14%, GLA inh pH 4.5 -15 and miR-21 reporter -13%.
Screening CCCCS(=O)CC(CS(=O)CCCC)OC(=O)c1ccc(C)cc1 (stereo not given) returned Rango-impB inh inconclusive, Rango release inh 3%, GLA inh pH 4.5 6 and miR-21 reporter -1%.
For COC(=O)c1cccnc1SCc1ccccc1 the results were Rango-impB inh -2.9%, Rango release inh 23%, GLA inh pH 4.5 0 and miR-21 reporter -14%.
`O=C(COc1nncc2ccccc12)NCC(F)(F)F` gave Rango-impB inh 0.1%, Rango release inh -5%, GLA inh pH 4.5 1 and miR-21 reporter -3%.
COc1ccccc1OCc1nc(C#N)c(NCc2ccco2)o1 was read as Rango-impB inh 2.4%, Rango release inh -5%, GLA inh pH 4.5 -4 and miR-21 reporter -14%.
For CC(C)c1ccc(NC(=S)N2CCCC2)cc1 the results were Rango-impB inh 0.2%, Rango release inh -10% and miR-21 reporter -50%.
COc1ccc(O[C@H]2C=C[C@@H](c3ccccc3)O[C@@H]2CO/N=C(\C)CCN2CCCCc3nc(C)c(C)cc32)cc1 was read as GLA inh pH 4.5 -6 and miR-21 reporter 4%.
CC1CC(C)CN(S(=O)(=O)c2ccc(NC(=O)CN3C(=O)NC(C)(c4ccccc4)C3=O)cc2)C1 (stereo not given) was read as Rango-impB inh 0.3%, Rango release inh -3% and miR-21 reporter 2%.
Screening CCn1c(NCc2cc(Cl)ccc2O)nc2ccccc21 returned Rango-impB inh 2.5%, Rango release inh -1%, GLA inh pH 4.5 -7 and miR-21 reporter 9%.
`C=CCn1c(=S)[nH]c2sc3c(c2c1=O)CCC3` gave Rango-impB inh -0.2%, Rango release inh 0%, GLA inh pH 4.5 0 and miR-21 reporter -20%.
CCN1CCN(C(=O)CN(C)S(=O)(=O)c2ccc(OC)c(C)c2)CC1 was read as Rango-impB inh -4.5%, Rango release inh -11%, GLA inh pH 4.5 6 and miR-21 reporter -5%.
CN(CCC#N)C(=S)Nc1ccc(F)cc1 was read as Rango-impB inh -3.3%, Rango release inh -5%, GLA inh pH 4.5 3 and miR-21 reporter 1%.
Screening CCOC(=O)CN(C(=O)COc1nc(C)cc(C)c1C#N)c1ccc(F)cc1 returned Rango-impB inh -4.2%, Rango release inh -21%, GLA inh pH 4.5 -12 and miR-21 reporter 0%.
`O=C(Nc1ccccc1)c1ccccc1NS(=O)(=O)c1ccc(Cl)s1` gave Rango-impB inh 2.8%, Rango release inh -15%, GLA inh pH 4.5 -7 and miR-21 reporter inconclusive.

Three compounds already listed, sorted by number of heavy atoms, rising:
`CCCNC(=O)CCNC(=O)c1ccc(C(C)(C)C)cc1` gave Rango-impB inh -1.0%, Rango release inh 0%, GLA inh pH 4.5 -9 and miR-21 reporter -11%.
COc1ccccc1OCc1nc(C#N)c(NCc2ccco2)o1 was read as Rango-impB inh 2.4%, Rango release inh -5%, GLA inh pH 4.5 -4 and miR-21 reporter -14%.
`O=C(Nc1ccccc1)c1ccccc1NS(=O)(=O)c1ccc(Cl)s1` gave Rango-impB inh 2.8%, Rango release inh -15%, GLA inh pH 4.5 -7 and miR-21 reporter inconclusive.

Next results follow.
Screening O=C(Nc1ccc(Cl)cc1)OCCn1nnnc1C(c1ccccc1Cl)N1CCOCC1 (stereo not given) returned Rango-impB inh -4.1%, Rango release inh -5%, GLA inh pH 4.5 1 and miR-21 reporter -10%.
CCC(=O)c1ccc(-c2ccccc2)cc1 was read as Rango-impB inh -0.3%, Rango release inh 3%, GLA inh pH 4.5 5 and miR-21 reporter -43%.
`COC(=O)c1ccc(N/C=C/C(=O)c2ccccc2)cc1` gave Rango-impB inh -0.4%, Rango release inh 17% and miR-21 reporter -48%.
`CCOc1ccc(NC(=O)CCC(=O)N/N=C2\CCCc3ccccc32)cc1` gave Rango-impB inh -0.9%, Rango release inh -13% and miR-21 reporter 0%.
O=C(CCCNc1ccccc1)N/N=C/c1cccs1 was read as Rango-impB inh -1.1%, Rango release inh -1%, GLA inh pH 4.5 5 and miR-21 reporter -1%.
`COc1ccc(N2CCN(C(=O)COC(=O)c3cccc(S(=O)(=O)Nc4ccccc4OC)c3)CC2)cc1` gave Rango-impB inh -1.6% and Rango release inh 11%.
`Cn1c(C(=O)N[C@@H](Cc2ccccc2)C(=O)NCCC(=O)O)cc2cc(Cl)ccc21` gave Rango-impB inh 4.8%, Rango release inh -10% and miR-21 reporter 0%.
CSc1ccc(S(=O)(=O)NCC(=O)OCC(=O)NCCc2ccccc2)cc1[N+](=O)[O-] was read as Rango-impB inh 0.5% and Rango release inh 18%.
For O=C(NCc1cccnc1)c1cccnc1-c1nc2ccccc2s1 the results were Rango-impB inh -6.9%, Rango release inh -2%, GLA inh pH 4.5 0 and miR-21 reporter 0%.
For CCC(C)(C)NC(=O)C(c1ccc(O)cc1)N(Cc1ccco1)C(=O)CCC(=O)Nc1ccccn1 (stereo not given) the results were Rango-impB inh inconclusive, Rango release inh -21% and miR-21 reporter 3%.
For COc1ccc(NC(=S)NC(=O)C2CCCCC2)cc1 the results were Rango-impB inh 3.3%, Rango release inh 2% and miR-21 reporter 10%.
CCCCOC(=O)C1CN(c2ccccc2)N=C1C(C)=O (stereo not given) was read as Rango-impB inh inconclusive, Rango release inh inconclusive, GLA inh pH 4.5 4 and miR-21 reporter -4%.
CC1(C)CC(=O)C2=C(C1)N(c1ccc(Cl)cc1)C(=O)C2(O)C(F)(F)F (stereo not given) was read as Rango-impB inh -3.5%, Rango release inh 4%, GLA inh pH 4.5 2 and miR-21 reporter -8%.
Screening COc1cc(C(=O)NCCC(=O)N2CCCCC2)cc(OC)c1OC returned Rango-impB inh -3.6%, Rango release inh -6% and miR-21 reporter 4%.
C=CCn1c(SCc2c(F)cccc2Cl)nnc1-c1ccco1 was read as Rango-impB inh -0.5%, Rango release inh -8%, GLA inh pH 4.5 5 and miR-21 reporter -17%.
Screening Cc1nc(N)c2c(Cc3cccc4ccccc34)nn(C(C)(C)C)c2n1 returned Rango-impB inh -1.5% and Rango release inh 15%.
`COc1ccc(/C=C(/NC(=O)c2ccc(OC)c(OC)c2)C(=O)NCCc2c[nH]c3ccccc23)cc1` gave Rango-impB inh -3.4%, Rango release inh 9%, GLA inh pH 4.5 6 and miR-21 reporter 12%.
Screening Cc1noc(C)c1COc1ccc(C(=O)OCC(=O)NC2CCCCC2C)cc1 (stereo not given) returned Rango-impB inh 0.0%, Rango release inh 5%, GLA inh pH 4.5 -1 and miR-21 reporter -11%.
CCOC(=O)c1ccccc1NC(=O)COC(=O)CCCOc1ccccc1 was read as Rango-impB inh 0.6% and Rango release inh 4%.
For CC(C)N(C)CCOC(=O)/C=C/c1ccccc1 the results were Rango-impB inh -3.0%, Rango release inh 1%, GLA inh pH 4.5 -10 and miR-21 reporter -9%.
CC1=C(/C=N/Nc2ccc([N+](=O)[O-])cc2[N+](=O)[O-])C(C)(C)CCC1 was read as Rango-impB inh 3.5%, Rango release inh -11%, GLA inh pH 4.5 -3 and miR-21 reporter -6%.
`COc1ccc(CCNC(=O)Cn2nnc(-c3ccc(OC)c(OC)c3)n2)cc1OC` gave Rango-impB inh -0.3%, Rango release inh -26%, GLA inh pH 4.5 -25 and miR-21 reporter 0%.
Screening CC(C)[C@H](NC(=O)c1ccc(Cl)cc1Cl)C(=O)OCc1nc2ccsc2c(=O)[nH]1 returned Rango-impB inh -1.8% and Rango release inh 12%.
COC(=O)CSc1cc(SCC(=O)OC)c(C#N)c(SCC(=O)OC)c1 was read as Rango-impB inh 0.7%, Rango release inh -11%, GLA inh pH 4.5 4 and miR-21 reporter 0%.
`NC(=O)c1cc2ccccc2o/c1=N\NC(=O)c1ccncc1` gave Rango-impB inh -1.5%, Rango release inh -16%, GLA inh pH 4.5 4 and miR-21 reporter -6%.
Cc1occc1-c1nnc(SCC(=O)Nc2nccs2)n1Cc1ccco1 was read as Rango-impB inh inconclusive, Rango release inh 3%, GLA inh pH 4.5 -4 and miR-21 reporter 0%.
`COc1cccc(C(=O)N2CCC(CCC(=O)Nc3cccc(C)c3)CC2)c1` gave Rango-impB inh 1.2%, Rango release inh 8% and miR-21 reporter -4%.
`COc1cc2c(cc1NC(=O)c1ccc(C)c([N+](=O)[O-])c1)oc1ccccc12` gave Rango-impB inh -3.2%, Rango release inh 1%, GLA inh pH 4.5 1 and miR-21 reporter -7%.
CC(=O)c1cc(C#N)c(N2CCN(c3ccccc3)CC2)nc1C was read as Rango-impB inh -1.4%, Rango release inh -1% and miR-21 reporter -10%.
`COc1ccc(C(=O)Nc2cc(Cl)cc(Cl)c2)c(OC)n1` gave Rango-impB inh 0.7%, Rango release inh 22%, GLA inh pH 4.5 -4 and miR-21 reporter -10%.
`O=c1[nH]c(C2CCCN(S(=O)(=O)c3cccc(Cl)c3)C2)nc2c1nnn2Cc1ccc2c(c1)OCCO2` (stereo not given) gave Rango-impB inh 3.5%, Rango release inh 40% and miR-21 reporter -21%.
COc1ccccc1C(=O)Nc1ccc(S(=O)(=O)N2CCCC2)cc1 was read as Rango-impB inh -1.4%, Rango release inh 0%, GLA inh pH 4.5 -17 and miR-21 reporter 1%.
Screening C=CCn1c(SC(C)C(=O)NCc2ccc3c(c2)OCO3)nc2scc(-c3ccccc3)c2c1=O (stereo not given) returned Rango-impB inh 0.2%, Rango release inh -10%, GLA inh pH 4.5 -5 and miR-21 reporter 0%.
Screening Oc1ccc(Nc2nc(-c3ccc(O)cc3)cs2)cc1 returned Rango-impB inh 11%, Rango release inh -20%, GLA inh pH 4.5 9 and miR-21 reporter -44%.
`COc1cc(C(=O)OCC(=O)NCc2ccco2)cc(OC)c1OC` gave Rango-impB inh -0.1%, Rango release inh 3%, GLA inh pH 4.5 -8 and miR-21 reporter -2%.
CCOc1ncccc1C(=O)OCC(=O)Nc1ccc(C(N)=O)cc1 was read as Rango-impB inh 0.4%, Rango release inh 32%, GLA inh pH 4.5 1 and miR-21 reporter -2%.
For O=C(Cc1ccc(Cl)cc1)N1CCOCC1 the results were Rango-impB inh -2.3%, Rango release inh -16% and miR-21 reporter -5%.
